Screening data from PubChem BioAssay.
HSV augment: increases HSV replication in cells | maximum fold increase | HSV replication augmentation in cells, fold increase | AID 1956 | 220,000 tested, 0.005% active;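 active = peak rise of 1.5-fold or more in the series; tested in PC3 cells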;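 note: first round at 10 µM; read as green reporter fluorescence; hits show the peak of a series up to 25 µM; 1 = signal of infected wells without compound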
INS promoter inh: TRM-6 insulin promoter activity inhibition; TRM-6 cells (human fetal islet line), insulin promoter-eGFP reporter, imaging; reporter expression induced with tamoxifen; inhibition, % at 2 µM; 130,000 tested, 0.9% active; AID 1273;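 active = inhibition above the mean plus 3 SD, with well images judged a real hit on visual review, cut at about 60% in these data, passing the limit was not always enough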
GALR2 agonist: GALR2 (human) receptor agonism. O43603. GALR2-expressing cells, agonist activation read-out. activation, %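 (tested at 5 µM)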. 140,000 tested, 0.48% active;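 active = above mean plus 3 SD of all compounds, about 5% in these data, not always enough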;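 note: 0% = vehicle buffer wells and 100% = reference agonist at full effect; tested in CHO reporter cells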
Target sequence (O43603 whole entry, looked up): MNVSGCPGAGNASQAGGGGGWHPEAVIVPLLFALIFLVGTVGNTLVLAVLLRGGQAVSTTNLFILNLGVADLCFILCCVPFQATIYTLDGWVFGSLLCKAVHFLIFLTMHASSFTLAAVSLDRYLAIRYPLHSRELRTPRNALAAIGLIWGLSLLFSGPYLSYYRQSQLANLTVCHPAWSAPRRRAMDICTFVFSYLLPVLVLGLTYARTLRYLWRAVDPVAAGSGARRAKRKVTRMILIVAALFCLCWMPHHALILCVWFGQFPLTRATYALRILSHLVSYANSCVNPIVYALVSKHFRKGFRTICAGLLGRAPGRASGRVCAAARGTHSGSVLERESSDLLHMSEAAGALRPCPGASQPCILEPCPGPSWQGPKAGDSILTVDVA
RGS16-Gao HTS: modulates binding between human RGS16 and Galphao; bead-based flow cytometry RGS16-Galphao binding, fluorescence; actives lie on both sides; binding response (% of control), % at 10 µM; 220,000 tested, 0.38% active; AID 1441;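 active = below 25% or above 175%, edge rows of some plates excepted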;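 note: Galphao activated by GDP with aluminum fluoride before binding; 100% = wells without compound and 0% = beads without RGS; some results beyond the cut were filed as inactive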
Target sequence (O15492 whole entry, looked up): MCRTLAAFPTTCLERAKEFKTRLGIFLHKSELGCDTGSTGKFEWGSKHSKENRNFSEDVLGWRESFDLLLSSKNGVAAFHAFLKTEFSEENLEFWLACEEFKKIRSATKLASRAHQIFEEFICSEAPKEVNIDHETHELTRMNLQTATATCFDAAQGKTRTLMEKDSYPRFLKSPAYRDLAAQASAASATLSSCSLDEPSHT
Target sequence (P09471 whole entry, looked up): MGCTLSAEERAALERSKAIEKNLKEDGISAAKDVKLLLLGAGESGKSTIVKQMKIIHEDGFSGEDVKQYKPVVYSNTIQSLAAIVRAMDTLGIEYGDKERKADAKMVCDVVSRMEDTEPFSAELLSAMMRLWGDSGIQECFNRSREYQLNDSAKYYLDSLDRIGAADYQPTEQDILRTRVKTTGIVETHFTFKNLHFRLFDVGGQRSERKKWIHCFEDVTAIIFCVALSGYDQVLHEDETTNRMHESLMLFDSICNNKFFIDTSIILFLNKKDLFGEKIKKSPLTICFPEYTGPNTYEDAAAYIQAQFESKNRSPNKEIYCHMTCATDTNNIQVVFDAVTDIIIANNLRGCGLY
PKD1 kinase inh: blocks activity of human protein kinase D1; Q15139; PKD1 kinase fluorescence polarization assay; inhibition, %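 (about 10 µM by stock and volumes)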; 200,000 tested, 0.056% active;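 active = inhibition of 50% or more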;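 note: controls were vehicle for no effect and a reference inhibitor for full effect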
INS promoter inh cell count: also measured in INS promoter inh; calls as there; normalized cell count, %; measured here: cell count, toxicity; reference of the scale not given here;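 cells exposed to compound for 48 h; stained nuclei by imaging scaled within each plate; lower means fewer cells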
HSV augment primary fold: second read-out of HSV augment, no call of its own (marks repeat the call); fold increase; compound at 10 µM; measured here: primary screen fold increase 10 uM; tested in PC3 cells;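 GFP signal in the first replicate; 1 = infected wells without compound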
Numbers without * were called inactive; i = inactive; . = not tested or not shown.

SMILES | HSV augment | HSV augment primary fold | INS promoter inh | INS promoter inh cell count | GALR2 agonist | RGS16-Gao HTS | PKD1 kinase inh
CCN(CC(=O)Nc1ccc(OC)cc1)C(=O)c1ccc([N+](=O)[O-])cc1 | i | 1.09 | . | . | . | 97.5 | -2.4
COc1ccc(C2CC(c3ccccc3)=NN2S(=O)(=O)c2ccc(C)cc2)c(OC)c1 (centres undefined) | i | 0.98 | -61.5 | 51.2 | -0.1 | 60.1 | 3.0
CCCCSc1nnc(CCNC(=O)OC(C)(C)C)o1 | i | 1.14 | . | . | . | 102.2 | .
CC(=O)CC(C)(C)Nc1nc2ccc([N+](=O)[O-])cc2o1 | i | 1 | . | . | . | 99.9 | .
Cc1ccc(C(=O)Oc2coc(CSc3nnc(NC(=O)c4cccs4)s3)cc2=O)cc1 | i | 1.01 | 44.0 | 49.3 | 0.6 | 51.4 | -11.4
O=S(=O)(c1ccccc1)c1nc(-c2ccco2)oc1NCc1ccccc1 | i | 0.85 | 20.0 | 98.7 | 0.8 | 98.6 | 1.4
CN(C)c1ccc(CNc2ccc3c(c2)ncn3C)cc1 | i | 1.09 | 2.7 | 119.2 | -2.0 | 100.5 | 1.0
COc1ccccc1/C=N/n1cnnc1 | . | . | . | . | -1.4 | 103.0 | -6.4
COc1ccc(S(=O)(=O)N(Cc2cc3cc(C)ccc3[nH]c2=O)CC2CCCO2)cc1 (centres undefined) | i | 0.81 | . | . | -3.1 | 106.0 | -6.1
Cc1ccc(Cn2nnc3c(=O)[nH]c(C(=O)NCc4ccco4)nc32)cc1 | i | 0.94 | -21.9 | 93.8 | 0.0 | 42.2 | -13.9
O=S(=O)(c1ccccc1)N(Cc1nc(-c2ccccc2)no1)C1CCCCC1 | i | 1.09 | -25.8 | 81.6 | -1.3 | 103.8 | -3.9
Cc1ccccc1Oc1cccc(C(=O)/C(C#N)=C/N(C)C)c1 | i | 0.9 | -14.3 | 51.4 | -1.1 | 95.3 | 3.7
O=c1oc2ccccc2c2c1SC(C(F)(F)F)C2 (centres undefined) | i | 0.817 | -18.9 | 46.6 | -1.9 | 100.9 | 1.4
CC(=O)c1cn(-c2ccc(Cl)cc2)c(=O)n(Cc2ccc(Br)cc2)c1=O | i | 0.86 | . | . | . | 100.6 | -6.9
Cc1[nH][nH]c(=O)c1N=Nc1ccccc1 | i | 1 | -6.8 | 51.5 | -1.2 | 104.2 | -3.9
COc1ccccc1-c1cc(N)n(S(=O)(=O)c2ccc(F)c(C)c2)n1 | i | 0.96 | . | . | -0.7 | 104.7 | -10.0
Cc1ccc(-c2nnn(CC(=O)N(CC(=O)NC3CCCC3)c3ccc(F)c(Cl)c3)n2)o1 | i | 0.81 | 43.8 | 76.0 | -1.8 | 51.9 | -0.4
Cc1cc(C)n(C(N)=NC(=O)c2ccc([N+](=O)[O-])cc2)n1 | i | 0.93 | . | . | . | 35.7 | .
COC(=O)CN1C(=O)CSc2ncccc21 | i | 1.01 | -7.1 | 78.5 | -3.1 | 104.7 | -17.4
COc1cc(C(=S)N2CCCC2)ccc1O | i | 0.95 | . | . | -0.2 | 102.7 | 6.1
CCOC(=O)C1(CCCc2ccccc2)CCN(C2CCN(C(C)=O)CC2)CC1 | i | 1.1 | . | . | . | 93.8 | -4.6
CCOC(=O)N1CCN(S(=O)(=O)c2ccc(OCC)c(C)c2)CC1 | i | 1.01 | -113.3 | 151.8 | -3.9 | 102.3 | 0.4
Cc1ccnc(NS(=O)(=O)c2ccc(NC(=O)Cc3ccccc3)cc2)n1 | i | 1.18 | 23.3 | 97.7 | -1.0 | 110.3 | -1.7
O=C(Nc1ccc(Cl)cc1)OCc1cn(-c2ccc(Cl)cc2)nn1 | i | 1.18 | . | . | -1.4 | 95.8 | 107.7*
CN1N=C(C(C)(C)C)CSC1=Nc1ccc(F)cc1 | i | 0.99 | . | . | . | 102.5 | .
More compounds.
SMILES | HSV augment | HSV augment primary fold | INS promoter inh | INS promoter inh cell count | GALR2 agonist | RGS16-Gao HTS | PKD1 kinase inh
CC(C)CC(=O)Nc1ccc(C(=O)CN2CCC(C)CC2)cc1 | i | 0.88 | . | . | . | 95.8 | 3.4
Fc1cccc(Cl)c1CSc1nnc2ccccn12 | i | 1.01 | . | . | . | 102.6 | -1.1
Cc1ccc(C(=O)OCC(=O)Nc2c(C)n(C)n(-c3ccccc3)c2=O)cc1[N+](=O)[O-] | i | 0.96 | . | . | . | 108.0 | -6.0
Cn1c(=O)cc(OCCCC(=O)N2CCN(Cc3ccc4c(c3)OCO4)CC2)c2ccccc21 | i | 0.97 | 0.0 | 105.2 | -1.0 | 143.4 | 2.3
CC(=O)NC(=S)Nc1ccc([N+](=O)[O-])cc1C | i | 0.97 | . | . | . | 101.8 | -1.9
Cc1cc(C)nc(NC(=O)c2ccc(Cl)c(Cl)c2)n1 | i | 0.95 | 0.0 | 92.0 | -1.1 | 107.6 | 3.1
CC(C)CNC(=O)CCCSc1nc2ccccc2[nH]1 | i | 1.03 | . | . | . | 101.9 | -7.1
COc1ccc(NC(=O)Cn2c(=O)n(CC(=O)NCc3ccco3)c(=O)c3ccccc32)cc1OC | i | 0.88 | 11.5 | 116.9 | -3.7 | 103.5 | -4.1
Cc1ccc(S(=O)(=O)NCC(=O)OC(C)C(=O)Nc2ncc(Cl)cc2Cl)cc1 (centres undefined) | i | 1.09 | 37.2 | 83.2 | -1.5 | 101.4 | -4.4
O=C(COC(=O)c1c[nH]c(=O)[nH]c1=O)Nc1ccccc1 | i | 0.9 | . | . | . | 101.1 | 1.1
CCCNC(=O)Cc1c(C)oc2ccccc12 | i | 0.92 | . | . | . | 105.0 | .
CC(C)CNc1nc(Oc2ccc(=O)n(C)n2)nc(N2CCOCC2)n1 | . | . | -70.0 | 123.7 | -0.9 | 100.3 | -10.2
CCCN1C(=O)/C(=C/c2ccc(C)s2)SC1=Nc1ccc(OC)cc1 | i | 1.06 | . | . | 0.9 | 93.4 | -2.6
CCOC(=O)c1c(C(C)(C)C)oc2ccc(O)cc12 | i | 0.89 | -33.3 | 48.5 | -0.2 | 107.4 | -7.6
Nc1nc(/C=C/c2cccnc2)nc(-c2ccccc2O)n1 | i | 0.92 | -42.9 | 43.1 | . | 101.0 | -4.2
O=C(NCCc1csc(-c2ccc(C(F)(F)F)cc2)n1)c1cccs1 | i | 0.86 | . | . | 0.0 | 112.9 | 14.8
Cc1ccc(-n2nnnc2SCC(=O)c2cc(C)n(-c3cc(C)on3)c2C)cc1 | i | 0.88 | 13.8 | 160.8 | -1.9 | 97.4 | -3.1
COCCNCC(=O)C12CC3CC(CC(C3)C1)C2 | i | 0.99 | 33.3 | 130.4 | -0.6 | 95.8 | 8.1
Nc1ccccc1Oc1ccc2ccccc2c1 | i | 1.05 | 43.8 | 99.1 | . | 98.5 | 1.7
Cc1nn2c(NCc3ccccn3)cc(C(C)(C)C)nc2c1-c1ccccc1 | i | 0.65 | . | . | . | 102.5 | .
Nc1ccc(S(=O)(=O)c2cccc(N)c2)cc1 | i | 1.02 | -6.3 | 137.8 | -3.4 | 104.2 | -13.3
Cn1c(=O)c2c3c(sc2n2c(SCC(N)=O)nnc12)CC(C(C)(C)C)CC3 (centres undefined) | i | 0.88 | 18.8 | 160.4 | 0.3 | 100.5 | -3.9
O=C(C1COc2ccccc2O1)N1CCN(c2ccccc2F)CC1 (centres undefined) | i | 0.94 | 57.1 | 70.8 | -0.4 | 100.5 | -7.3
COc1ccc(C2C(C#N)=C(N)OC3=C2C(=O)CC(C)(C)C3)cc1Cn1nc(C)c([N+](=O)[O-])c1C (centres undefined) | i | 1.11 | . | . | -0.9 | 90.7 | 1.0
CCC(=O)N1CCN(c2ccc(NC(=O)c3cc4ccccc4o3)cc2)CC1 | i | 0.82 | -246.2 | 91.9 | 0.2 | 100.3 | -0.9

3 structures already listed, ordered by count of non-hydrogen atoms, ascending:
SMILES | HSV augment | HSV augment primary fold | INS promoter inh | INS promoter inh cell count | GALR2 agonist | RGS16-Gao HTS | PKD1 kinase inh
Nc1ccc(S(=O)(=O)c2cccc(N)c2)cc1 | i | 1.02 | -6.3 | 137.8 | -3.4 | 104.2 | -13.3
Cn1c(=O)c2c3c(sc2n2c(SCC(N)=O)nnc12)CC(C(C)(C)C)CC3 (centres undefined) | i | 0.88 | 18.8 | 160.4 | 0.3 | 100.5 | -3.9
Cc1nn2c(NCc3ccccn3)cc(C(C)(C)C)nc2c1-c1ccccc1 | i | 0.65 | . | . | . | 102.5 | .

The listing picks up; the seven compounds before the break are reprinted first.
SMILES | HSV augment | HSV augment primary fold | INS promoter inh | INS promoter inh cell count | GALR2 agonist | RGS16-Gao HTS | PKD1 kinase inh
Nc1ccccc1Oc1ccc2ccccc2c1 | i | 1.05 | 43.8 | 99.1 | . | 98.5 | 1.7
Cc1nn2c(NCc3ccccn3)cc(C(C)(C)C)nc2c1-c1ccccc1 | i | 0.65 | . | . | . | 102.5 | .
Nc1ccc(S(=O)(=O)c2cccc(N)c2)cc1 | i | 1.02 | -6.3 | 137.8 | -3.4 | 104.2 | -13.3
Cn1c(=O)c2c3c(sc2n2c(SCC(N)=O)nnc12)CC(C(C)(C)C)CC3 (centres undefined) | i | 0.88 | 18.8 | 160.4 | 0.3 | 100.5 | -3.9
O=C(C1COc2ccccc2O1)N1CCN(c2ccccc2F)CC1 (centres undefined) | i | 0.94 | 57.1 | 70.8 | -0.4 | 100.5 | -7.3
COc1ccc(C2C(C#N)=C(N)OC3=C2C(=O)CC(C)(C)C3)cc1Cn1nc(C)c([N+](=O)[O-])c1C (centres undefined) | i | 1.11 | . | . | -0.9 | 90.7 | 1.0
CCC(=O)N1CCN(c2ccc(NC(=O)c3cc4ccccc4o3)cc2)CC1 | i | 0.82 | -246.2 | 91.9 | 0.2 | 100.3 | -0.9
CC1=C(C(=O)OCc2ccccc2)C(c2ccc(Cl)cc2Cl)NC(=O)N1CCCC(=O)O (centres undefined) | i | 0.73 | 54.5 | 142.8 | -1.5 | 107.3 | -7.8
COc1ccc2nc3oc(C(=O)N4CCC(C(N)=O)CC4)cc3cc2c1 | i | 0.88 | -8.3 | 215.7 | 1.3 | 70.3 | -15.9
CCC1(C)Cc2c(sc3nc(SCC(=O)c4ccccc4)[nH]c(=O)c23)CO1 (centres undefined) | i | 0.99 | . | . | . | 100.0 | .
CCOc1ccc(NC(=O)CN2C(=O)COc3ccc(Cl)cc32)cc1 | i | 1.15 | . | . | -2.9 | 100.0 | -9.8
O=C(CCC1CCCN(C(=O)c2cc(C3CC3)[nH]n2)C1)N1CCN(c2ccccn2)CC1 (centres undefined) | i | 0.91 | -15.0 | 140.4 | . | 123.5 | -2.8
Nc1ccc(C(=O)OCc2nc3ccccc3[nH]2)cc1 | i | 0.86 | . | . | 0.1 | 95.7 | -15.0
Cc1cc(C(=O)N/N=C/c2ccco2)c2ccccc2n1 | i | 1.09 | -3.5 | 87.2 | -0.4 | 132.8 | 1.4
CCn1ncc(CNC(=O)c2cccc([N+](=O)[O-])c2)c1C | i | 0.82 | . | . | -2.3 | 112.0 | -5.2
CC(=O)C1=C(c2cccc([N+](=O)[O-])c2)N(C(C)=O)n2c(C)nnc2S1 | i | 0.97 | -13.3 | 59.7 | . | 102.5 | 0.0
COC(=O)c1[nH]c2cccc(C)c2c1NC(=O)CN1CCCc2ccccc21 | i | 0.84 | -67.9 | 115.7 | -2.0 | 87.1 | -7.8
Cc1c(Br)c(=O)[nH]c(=O)n1COCc1ccccc1 | i | 1.01 | -71.4 | 127.1 | 0.2 | 92.7 | -6.6
O=[N+]([O-])c1ccc(Nc2ccc(F)cc2)nc1 | i | 1.05 | . | . | 0.0 | 48.7 | 8.1
Cc1nc2ccc(Cc3ccc4nc(C)[nH]c4c3)cc2[nH]1 | i | 1.15 | 54.3 | 81.5 | -1.1 | 105.5 | -0.5
CCn1c(Cc2ccccc2)nnc1SCC(=O)Nc1ccc2c(c1)OCCO2 | i | 0.96 | -6.5 | 137.6 | -1.9 | 90.9 | -10.3
